Lassa entry inh: blocks Lassa virus binding to or entry into cells; AID 540256; Lassa virus pseudotype entry inhibition, cell reporter; control for the full effect not named in the record; Potency, µM (titrated, usually from 37.9 µM), without a hit: at the highest dose activity change, negative = inhibition, most hits filed as inhibitors; 1.2% of 300,000 active; active means well fitted inhibition curve with a large enough effect; inconclusive means small, poorly fitted or top-dose-only effect, or effect the other way; inactive means flat fitted curve, though single readings scatter; tested in HEK293 cells; note: % is set by controls: 0 for no effect and ±100 for the full control effect; nearly all actives have a fitted effect of over 50% in size; luciferase read-out
NS1 function inh: blocks influenza NS1 protein function; S. cerevisiae slowed by influenza A NS1, growth recovery by OD600; Potency, µM (doses to about 46.1 µM), for the others: at the highest dose activity, positive = more growth; 0.4% of 270,000 active; note: actives are rising curves; nearly all actives have a fitted effect of over 50% in size
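OD600 was taken as the measure of yeast growth restored by compound in an NS1-expressing S. cerevisiae strain. Cells had been washed out of glucose medium and diluted 1:100 into galactose -URA medium, pH 6.0.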
RE007 growth inh: less growth of the S. pombe RE007 Vpr strain | S. pombe RE007 Vpr strain, BacTiter-Glo ATP luminescence, 24 h; control for the full effect not named in the record | Potency, µM (doses to about 92.2 µM), inactives show at the highest dose activity change, negative = less growth | 0.21% of 360,000 active | AID 651644; active = well fitted falling curve with a large enough effect; inconclusive = small, poorly fitted or top-dose-only effect; inactive = no such curve, though single readings can be large or run the other way;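 note: % is set by controls: 0 for no effect and ±100 for the full control effect; nearly all actives have a fitted effect of over 50% in size; the assay follows cell death caused by Vpr and the record does not say whether a fall means rescue or toxicity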
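Fission yeast RE007 carrying one integrated HIV-1 vpr copy, seeded at OD 0.01 in PMG+AL medium with 23 nL pinned compound. Grown 24 h at 30 degrees; viability read by BacTiter-Glo luminescence after 5 min.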
SARS PLP yeast: SARS-CoV PLP inhibition in yeast. S. cerevisiae expressing SARS-CoV PLpro, growth rescue; control for the full effect not named in the record. Potency, µM (series often up to 32.9 µM), for the others: at the top dose activity, positive = growth rescue. 0.19% of 330,000 active. AID 485353; note: 0% is about no effect; nearly all actives have a fitted effect of over 55% in size; growth read by luminescence after 48 h
StopGo reporter: lowers the luciferase signal of an FMDV 2A StopGo reporter. human cells with a luciferase reporter of 2A StopGo recoding; control for the full effect not named in the record. Potency, µM (top dose mostly 57.9 µM), inactives show at the highest dose signal change, negative = less light. 1.2% of 410,000 active. AID 1159524; active = well fitted falling curve with a large enough effect; inconclusive = small, poorly fitted or top-dose-only effect; inactive = no such curve, though single readings can be large or run the other way; tested in HEK293T cells; note: % is set by controls: 0 for no effect and ±100 for the full control effect; nearly all actives have a fitted effect of over 45% in size; luciferase light after 4 h
Cruzain noTriton: inhibitors of Trypanosoma cruzi cruzain without detergent | purified cruzain, Z-FR-AMC fluorescence, no detergent | Potency, µM, inactives show max response, negative = inhibition, hits mostly inhibitors | 2.3% of 200,000 active | AID 1476; active = well fitted curve in the direction sought with a large enough effect; inconclusive = small, poorly fitted or top-dose-only effect, or another doubt; inactive = no such curve, though single readings can be large; an effect the other way counts as inactive or inconclusive;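 note: plate controls were enzyme without inhibitor for no effect and buffer without enzyme for full effect; nearly all actives have a fitted effect of over 40% in size; top concentration of the series not given in the record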
Target sequence (P25779 123-467 limits assumed): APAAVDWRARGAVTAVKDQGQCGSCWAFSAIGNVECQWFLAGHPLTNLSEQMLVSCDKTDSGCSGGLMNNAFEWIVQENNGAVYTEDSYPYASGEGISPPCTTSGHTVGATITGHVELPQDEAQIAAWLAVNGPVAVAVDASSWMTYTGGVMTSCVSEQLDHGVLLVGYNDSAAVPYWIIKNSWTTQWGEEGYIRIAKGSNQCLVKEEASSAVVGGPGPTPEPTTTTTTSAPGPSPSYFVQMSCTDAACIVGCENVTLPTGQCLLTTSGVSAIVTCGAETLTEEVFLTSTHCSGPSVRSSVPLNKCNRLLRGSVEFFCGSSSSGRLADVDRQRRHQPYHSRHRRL
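Detergent-free condition (0.00005% Triton X-100) in acetate buffer pH 5.5 with DTT. 1.5 nM enzyme and compound were pre-mixed 15 min, then 2 uM Z-FR-AMC substrate added; reaction progress from fluorescence change between first and third reads (60 s).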
Cruzain Triton: inhibitors of Trypanosoma cruzi cruzain with detergent. AID 1478. Potency, µM, without a hit: max response, negative = inhibition, usual class: inhibitors. P25779. 0.43% of 200,000 active. purified cruzain, Z-FR-AMC fluorescence, 0.01% Triton; active = well fitted curve in the direction sought with a large enough effect; inconclusive = small, poorly fitted or top-dose-only effect, or another doubt; inactive = no such curve, though single readings can be large; an effect the other way counts as inactive or inconclusive;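 note: plate controls were neutral wells for no effect and buffer without enzyme for full effect; nearly all actives have a fitted effect of over 40% in size; top concentration of the series not given in the record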
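Detergent-containing run (0.01% Triton X-100) in acetate buffer pH 5.5 with 5 mM DTT: enzyme at 1.5 nM final, 15 min compound preincubation at room temperature, then 2 uM Z-FR-AMC substrate. Activity taken as 60 s fluorescence increase at 360/450 nm.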
Marburg entry inh: inhibitors of Marburg virus binding or cell entry | Marburg virus pseudotyped entry inhibition, cell reporter; control for the full effect not named in the record; about a third of the inactives were read at about 46 µM | Potency, µM (titrated, usually from 37.8 µM), for inactives: at the top dose activity change, negative = inhibition, most hits filed as inhibitors | 1.8% of 300,000 active; active = well fitted inhibition curve with a large enough effect; inconclusive = small, poorly fitted or top-dose-only effect, or effect the other way; inactive = flat fitted curve, though single readings scatter; tested in HEK293 cells; about a fifth of its hits are not listed in these tables; note: % is set by controls: 0 for no effect and ±100 for the full control effect; luciferase read-out
* = called active by the depositor; ? = inconclusive; / = not tested or not shown; & = joins results of further samples; [ ] = remark or other dose. Unless noted, calls come from the whole dose curve; as a rule, active means well fitted rising curve with a large enough effect; inconclusive means small, poorly fitted or top-dose-only effect; inactive means no such curve, though single readings can be large or run the other way. Potency is the fitted concentration of half-maximal effect. Hits appear at their usual frequency. Share with any hit: about 4.8%.

SMILES	Lassa entry inh	NS1 function inh	RE007 growth inh	SARS PLP yeast	StopGo reporter	Cruzain noTriton	Cruzain Triton	Marburg entry inh
COc1ccc(CN2CCNC(=O)C2CC(=O)N(C)Cc2ccon2)c(OC)c1 (stereo not drawn)	7%[46.1 µM]	0%	5%	0%	20%	/	/	3%[46.1 µM]
CC(=O)Nc1ccc(OCCCNC(=O)c2c(-c3ccccc3)noc2C)cc1	-2%	-2%	-5%	0%	?	/	/	-18%
Cc1cc(C(=O)O/N=C(\N)c2ccc(C(C)(C)C)cc2)no1	/	1%	-7%	-1%	27%	/	/	/
O=C(NC(NC(=S)Nc1ccc(Cl)c(Cl)c1)C(Cl)(Cl)Cl)c1ccco1 (stereo not drawn)	?	-11%	-4%	-2%	?	-2%	-4.7%	?
O=C(CSc1nnc(-c2ccncc2)n1-c1ccc(Cl)cc1)NCc1cccs1	30%	-15%	8%	-3%	21%	-8%	0.4%	?
COc1ccc(S(=O)(=O)NC2CCCCC2)cc1-n1cnnn1	-6%	1%	-7%	-1%	101%[activator]	/	/	14%[46.1 µM]
Cc1nc(C)c(C(=O)N2CCCC(C(=O)c3cc(F)ccc3F)C2)s1 (stereo not drawn)	?	15%	7%	15%	-7%	/	/	0%
CN1C(=O)/C(=C/c2ccc(OCc3ccccc3F)cc2)NC1=S	/	3%	6%	1%	-11%	/	/	/
NCCc1c[nH]c2ccc(O)cc12	0%	0%	-1%[18.4 µM]	/	-9%	3%&4%&2%	-7.9%&2.9%&0.8%	?
COc1ccc(N/C(N)=N/c2nc(CSc3nnc(C)s3)cc(=O)[nH]2)cc1	?	0%	-16%	0%	-13%	/	/	-5%[46.1 µM]
COc1ccc(-n2c(SCCC#N)nnc2-c2cc(Cl)ccc2OC)cc1Cl	?	1%	16%	10%	-5%	6%	-6.3%	?
CC(C)Cn1c(N)c(C(=O)COC(=O)[C@@H]2CCCN2C(=O)c2cccs2)c(=O)n(C)c1=O	1%[46.1 µM]	2%	-20%	-1%	-25%	/	/	?
O=C(COc1ccc(F)cc1)Nc1c(C(=O)N2CCC(N3CCCCC3)CC2)oc2ccccc12	/	3%	2%	5%	94%[activator]	/	/	/
C=CCn1c(=O)c2c(C)c(C)sc2n2c(Nc3ccc(OC)cc3)nnc12	-15%	-22%	20%	-4%	-7%	28%	-4.0%	4%
O=C(O)CC(SCC(=O)Nc1ccc(Cl)c(S(=O)(=O)N2CCOCC2)c1)C(=O)O (stereo not drawn)	/	4%	7%	1%	2%	/	/	/
Cc1ccc(S(=O)(=O)N2CCCCC2C(=O)O)s1 (stereo not drawn)	1%[46.1 µM]	/	0%	-1%	-11%	/	/	7%
NC(=O)CC(NC(=O)c1ccc(Br)cc1)c1ccc(N2CCCCCCC2)c([N+](=O)[O-])c1 (stereo not drawn)	/	?	-8%	-1%	-26%	/	/	/
CCOc1cc(/C=N/O)cc(Br)c1OC	?	-68%	-11%	-11%	-1%	1%	-5.6%	14%
COc1ccc(S(=O)(=O)N2CCC(C(=O)Nc3cc(Cl)ccc3N3CCOCC3)CC2)cc1OC	-6%	/	3%	2%	8%	/	/	-8%[46.1 µM]
Fc1ccc(-n2cc(-c3ccccc3)c3c(=S)nc[nH]c32)cc1	5µM*	-18%	-4%	2%	-27%	/	/	?
Oc1[nH]c2ccccc2c1C=Nc1ccccc1	/	-6%	-2%	-2%	19%	/	/	/
Cc1cc(-n2nnc3ccccc32)nc2ccccc12	17%	5%	-23%	3%	30%[activator]	-29%	0.7%	9%
CCN(CC)C(=O)Cn1cc(S(=O)(=O)CC(=O)Nc2ccccc2C)c2ccccc21	13%	/	1%	/	-3%	/	/	?
Cc1cc(OCC(=O)C(C)(C)C)c2c(-c3ccccc3)cc(=O)oc2c1	/	4%	-5%	0%	?	/	/	/
O=c1cc(CCl)nc(Cc2c(Cl)cccc2Cl)[nH]1	?	/	12%	/	?	/	/	?

Additional structures.
SMILES	Lassa entry inh	NS1 function inh	RE007 growth inh	SARS PLP yeast	StopGo reporter	Cruzain noTriton	Cruzain Triton	Marburg entry inh
CC(OC(=O)CCCc1nc2ccccc2s1)C(N)=O (stereo not drawn)	-17%	-5%	7%	3%	3%	-10%	1.8%	-1%[46.1 µM]
CC(C)c1ccc(N(CC(=O)NCCCN2CCOCC2)S(=O)(=O)c2ccccc2)cc1	?	/	11%	-3%	2%	/	/	22%
COc1ccc(CC2NCC(O)C2OC(C)=O)cc1 (stereo not drawn)	/	/	?	/	?	1%	2.7%	/
COc1cccc(OC)c1C(=O)Nc1sc2c(c1C#N)CCC2	?	?	6%	2%	-10%	/	/	-5%
COC(=O)c1sccc1S(=O)(=O)N(CC(=O)Nc1ccccc1F)c1ccccc1	-5%[46.1 µM]	/	/	/	13%	-3%	-4.3%	/
COc1ccc(OC(=O)COc2ccc(C)cc2)cc1	-15%[46.1 µM]	-10%	-1%	-2%	-14%	/	/	0%[46.1 µM]
Clc1ccc(CSc2ccc(-c3cccs3)nn2)cc1	12%[46.1 µM]	/	/	/	31%[activator]	9%	-1.3%	/
CC(=O)Nc1ccc(C(=O)NCCCOC(C)C)cc1	?	-4%	0%	1%	-15%	/	/	2%[46.1 µM]
COc1cc(OC)cc(C(=O)Nc2ccc3oc(-c4cccc5c(Br)cccc45)nc3c2)c1	8%[46.1 µM]	/	/	/	-10%	2%	-0.1%	/
Cc1sc2nc(SCc3nc(-c4cccs4)no3)n(-c3ccccc3)c(=O)c2c1C	?	?	-7%	-12%	/	?	1.7%	-16%
COc1cc(C2C(C(=O)Nc3ccc(Cl)cc3)=C(C)Nc3nc(SC)nn32)cc(OC)c1OC (stereo not drawn)	?	/	/	/	-11%	12%	-2.0%	-14%[46.1 µM]
CCOc1ccccc1NC(=O)C1CCCN(S(C)(=O)=O)C1 (stereo not drawn)	13%[46.1 µM]	5%	16%	-2%	-11%	/	/	-8%[46.1 µM]
Cc1ccc(-n2cccc2/C=C2/C(=N)N3C(=NC2=O)SN=C3S(C)(=O)=O)cc1Cl	0%	7%	-6%	-21%	0%	?	?	-4%
COc1ccc(S(=O)(=O)N(CC(=O)NC(C)c2ccccc2)c2ccc(C)cc2)cc1OC (stereo not drawn)	?	/	/	/	?	?	-4.0%	/
CC(C)(C)Sc1ccccc1S(=O)(=O)C(C)(C)C	/	3%	-10%	0%	-18%	/	/	/
CCCCOc1cccc(C(=O)NNC(=S)NC2CCCCC2)c1	?	-36%	3%	?	7%	3%	-6.0%	-10%
Cc1nc2scc(C)n2c(=O)c1S(=O)(=O)Nc1ccc(N2CCN(C(=O)C(C)C)CC2)cc1	-13%[46.1 µM]	-9%	9%	-4%	?	4%	-7.8%	-11%&-11%[46.1 µM]
C=CCNC(=O)c1ccc(Sc2ccccc2)c([N+](=O)[O-])c1	7%	-8%	-23%	-3%	-3%	-13%	-0.7%	23%[46.1 µM]
O=C(NNC(=O)c1ccc(Cl)cc1Cl)c1cccs1	9%	/	18%	1%	46%[activator]	/	/	?
O=C(CCN1CCN(S(=O)(=O)c2ccc(Cl)cc2)CC1)Nc1ccc(F)cc1	/	-21%	-9%	-2%	?	/	/	/
CCCCCCC(=O)Nc1c2c(nc3ccccc13)N(C)CC2	-16%	2%	-1%	/	0%	27%	1.8%	26%[46.1 µM]
CCC(C)(C)NC(=O)C(c1ccc(F)cc1)N(Cc1cccc(OC)c1)C(=O)c1cnccn1 (stereo not drawn)	-3%[46.1 µM]	4%	-5%	0%	9%	/	/	15%[46.1 µM]
CC(C)CCn1c(N2CCCC2)nc2c1c(=O)n(C)c(=O)n2C	/	-24%	9%	5%	2%	/	/	/
Cc1ccc2nc(SCC(=O)NC3CCCCC3)nc(=O)n2c1	-1%	/	-3%	0%	-8%	/	/	1%
O=C(/C=C/c1ccco1)Nc1nc(-c2ccc(F)c(F)c2)cs1	/	-1%	13%	0%	35µM*	/	/	/

Next entries follow.
SMILES	Lassa entry inh	NS1 function inh	RE007 growth inh	SARS PLP yeast	StopGo reporter	Cruzain noTriton	Cruzain Triton	Marburg entry inh
COc1ccc(CCNS(=O)(=O)c2cc(-c3cc(C)no3)ccc2OC)cc1OC	-15%[46.1 µM]	/	/	/	25%	3%	3.3%	/
CC(=O)CC(=O)Nc1ncccn1	16%[46.1 µM]	/	10%	4%	-14%	/	/	-13%[46.1 µM]
Cc1cccc(OCCSc2nc3c([nH]2)c(=N)ncn3Cc2ccccc2)c1	2%	12%	3%	-4%	-22%	-5%	-4.6%	-28%
COc1ccc(NC(=O)c2sc3nc4c(cc3c2N)CCCCCC4)cc1	?	/	/	/	?	12%	0.8%	?
CS(=O)(=O)N(CC(=O)Nc1ccc2c(c1)OCCO2)Cc1ccc(Cl)cc1	-13%	-11%	2%	5%	?	-13%	-3.1%	-7%[46.1 µM]
CCC(C)Nc1cc(C)nc2ncnn12 (stereo not drawn)	/	-13%	0%	0%	-13%	/	/	/
O=C(N=C1c2ccccc2CN1c1ccc(F)c(F)c1)c1cccnc1	15%	3%	-20%	0%	11%	/	/	?
CCc1ccccc1NC(=O)c1ccc(NCCc2ccccc2)c([N+](=O)[O-])c1	-5%	7%	4%	0%	-10%	-4%	-4.1%	?
Cc1ccc(S(=O)(=O)N2CCC(C(=O)N3CCCCCCC3)CC2)cc1	-29%	/	34%	/	0%	/	/	6%[46.1 µM]
COc1ccc(NC(=O)CN(C)C(=O)CNC(=O)Cc2cccc3ccccc23)cc1	5%	-2%	-11%	?	6%	/	/	23%
COc1ccc2c(c1)[N+](C)(C)C(C)(C)C=C2C	/	1%	1%	-4%	10%	/	/	/
C=CCn1c(SCC(=O)N2CCOCC2)nc(O)cc1=O	2%	8%	7%	7%	-6%	-6%	4.2%	3%
Nn1c(Cc2ccccc2F)nnc1SCC(=O)N1CC(=O)Nc2ccccc21	2%	9%	18%	11%	-3%	-4%	-0.1%	0%
CC(C)N1C(=O)CC2(CC[N+](C)(CCOC(=O)C(O)(c3ccccc3)c3ccccc3)CC2)C1=O (stereo not drawn)	1%	?	2%	0%	2%	-1%	1.7%	-10%
COc1ccc(/C=C2\SC(=S)N(CCC(=O)NC3C=CS(=O)(=O)C3)C2=O)cc1 (stereo not drawn)	/	9%	1%	19%	-3%	/	/	/
CC(=O)Nc1ccc(C(=O)CSc2nnnn2C)cc1	19%	-6%	1%	1%	3%	/	/	17%[46.1 µM]
CCCn1c(SCc2ccccc2)nc2c1c(=O)[nH]c(=O)n2C	-15%	-9%	7%	-3%	?	1%	1.2%	-20%[46.1 µM]
